Sa RN4220 lethal = S. aureus RN4220 growth inhibition; OD600, 16 h; inhibition, % (no concentration beside the values); actives 0.33% (n = 330,000); AID 1259311;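 active = z-score of -3 or lower and OD600 up to 0.18 on both plates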;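 also: plate controls were untreated cells for no effect and reference antibiotic for full effect; stock transfer was 100 nL into about 80 µL; one replicate is shown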
Sa ugtP lethal = compounds lethal to S. aureus RN4220 ugtP deletion mutant; OD600 growth, 16 h; some inactives read as strong as hits; growth inhibition, % (no concentration beside the values); AID 1259309; actives 0.54% (n = 330,000);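 active = z-score under -3 and OD600 up to 0.15 on both plates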;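 also: plate controls were untreated wells for no effect and antibiotic for full effect; wells of about 80 µL received 100 nL stock; the first replicate is given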
Bead autofluor = flagged as autofluorescent in microsphere protease counterscreen. compound autofluorescence counterscreen, microsphere flow cytometry; stronger effect = higher value. fluorescence intensity (no concentration beside the values). actives 3.1% (n = 360,000). AID 624483;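 active = at least 3 SD above the mean of all compounds, about 16000 in these data; inconclusive = too few beads counted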;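 also: 100 nL of 1 mM stock went into each well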
Mtb hypoxia inh = inhibitors of hypoxia-regulated fluorescent reporter in Mycobacterium tuberculosis | M. tuberculosis hypoxia-regulated fluorescent reporter, fluorescence | fluorescence inhibition, % (no concentration beside the values) | actives 0.1% (n = 300,000) | AID 1159583;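 active = 35 to 45% if threefold the growth effect, above 45% if 1.5-fold the growth effect; inactive = the rest, general growth blockers included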;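 also: wells of about 50 µL received 100 nL stock; 0% = vehicle wells and 100% = reference inhibitor wells; whole bacteria with a GFP reporter of the hypoxia response; strong numbers were not always called active; many hits fall short of the cut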
PrP 5UTR inh = suppresses PrP 5' UTR mRNA reporter expression | actives 0.35% (n = 340,000) | inhibition, % (test concentration not listed) | cell-based PrP 5' UTR mRNA reporter, plate reader;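 active = every replicate at 50% or more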;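 also: 0 = median of the neutral control wells; tested in H4 reporter cells; numbers are from one replicate; inactives centre near -14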
BJeLR lethal = BJeLR cell viability loss; actives 0.17% (n = 300,000); inhibition, % (concentration not given with the values); BJeLR (HRASV12) viability, CellTiter-Glo ATP luminescence, 48 h; reference of the scale not given here;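 active = replicate mean above 50%; inconclusive = above 50% but judged a plate artefact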;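 also: 50 nL library stock added to about 25 µL; numbers are from one replicate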
Mtb hypoxia inh growth = second read-out of Mtb hypoxia inh, no call of its own (marks repeat the call); growth inhibition, %; measured here: M. tuberculosis growth (absorbance);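 0% = vehicle and 100% = reference antibiotic; read after six days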
An asterisk follows results filed as active; ? = inconclusive; nt = not tested or not shown.

SMILES	Sa RN4220 lethal	Sa ugtP lethal	Bead autofluor	Mtb hypoxia inh	Mtb hypoxia inh growth	PrP 5UTR inh	BJeLR lethal
O=C(CCSc1ccccc1)NCCSc1ccccn1	3.5	11	3490	4	12	-17	-3
O=C(NCC(c1ccco1)N1CCCCC1)c1cccc(S(=O)(=O)Nc2ccccc2Cl)c1 (centres undefined)	0.0	-9	nt	2	-19	-2	-2
CC(C)c1ccc(N(CC(=O)NN=Cc2ccc(OC3CSC3)cc2)S(=O)(=O)c2ccccc2)cc1	3.5	9	nt	6	-3	nt	nt
CC(C)(C)C(=O)Nc1ccc(C(=O)NN=Cc2ccccc2OC(=O)c2ccc(Cl)cc2Cl)cc1	2.8	-11	nt	3	8	nt	nt
CC(Cn1nc([N+](=O)[O-])cc1C)=NNC(=O)COc1c(Cl)cc(Cl)cc1Cl	9.0	-3	nt	2	6	nt	nt
CCOC(=O)C1(CC2CC2)CCN(C(=O)c2cccnc2C)CC1	0.2	-5	4442	3	6	9	5
O=C(CSc1nc2nc3c(cc2c(=O)n1-c1ccccc1)CCCC3)Nc1cccc2ccccc12	1.9	2	2175	2	1	-17	2
O=C(CCCCCNC(=O)c1ccccc1)NN=Cc1ccc(O)cc1O	-8.2	-4	nt	-6	-7	nt	nt
O=C(CN1CCCc2ccccc21)Nc1cc(S(=O)(=O)N2CCCC2)ccc1Cl	6.0	-2	4378	9	4	-18	nt
CSc1ccccc1C(=O)Nc1ccc(C)c(C)c1	5.7	3	16135*	6	4	-63	1
c1ccc2c(c1)oc1c(N3CCN(Cc4ccc5c(c4)OCO5)CC3)ncnc12	1.9	22	4171	-6	4	-28	10
O=C(CNC(=O)[C@@H]1Cc2ccccc2CN1)NC1CCCCC1	0.8	6	4793	9	5	-6	4
O=C(NC(=S)NC1CCCCC1)c1ccc(F)cc1	6.7	60	?	11	0	-86	8
CC(C)N1CCC(N2CCN(Cc3ccc(-c4ccccc4Cl)o3)CC2CCO)CC1 (centres undefined)	3.1	-2	3459	2	-14	-20	8
COc1ccc(N2CCN(C(=O)CCCC(=O)c3ccccc3)CC2)cc1	4.7	4	5213	nt	nt	-6	-1
CCOCCCn1c(SCC(=O)NC(C)C)nc2ccccc2c1=O	5.9	11	8382	22	14	-9	-14
CCN(C[C@H]1N[C@@](Cc2ccccc2)(C(=O)OC)[C@H]2C(=O)N(Cc3ccccc3)C(=O)[C@@H]12)C(=O)COC	4.5	0	3956	-11	4	-16	nt
COc1ccc(S(=O)(=O)N2CCCCCC2)cc1C(=O)N(C)Cc1ccc(C)cc1	-1.5	3	5305	-2	-6	-17	7
CC[C@]12c3[nH]c4ccccc4c3CCN1C(=O)C(CC(=O)NCC13CC4CC(CC(C4)C1)C3)C[C@@H]2C(=O)N1CCN(C(=O)C2CC2)CC1 (some centres undefined)	-10	-2	3935	10	8	-19	nt
COC(=O)c1ccccc1NC(=O)CN(C1CCCCC1)S(C)(=O)=O	5.8	1	3877	6	9	-8	1
CSCc1ccc(C(=O)N2CCC(CCC(=O)N(C)Cc3ccccc3)CC2)o1	-1.5	-3	5905	-9	4	-28	5
COC(=O)CNC(=O)CNC(=O)Nc1ccccc1	2.4	2	19345*	2	9	-21	9
COc1ccc(N=C2SC(C(=O)Nc3ccc(F)cc3)CC(=O)N2C)cc1 (centres undefined)	5.9	3	4585	5	9	-10	3
CN(C)CCC(=O)c1ccc(F)cc1	-0.2	-5	4569	15	7	-19	-16
CC(C)C[C@H]1COCCS(=O)(=O)N1Cc1ccccc1F	nt	nt	3994	nt	nt	-19	3
Cc1[nH]c(=S)[nH]c(=O)c1CCCO	nt	nt	2188	nt	nt	-25	4
CC(OC(=O)Cn1cc(C(F)(F)F)ccc1=O)C(=O)N(C)c1ccccc1 (centres undefined)	2.5	4	3747	0	6	-9	nt
COc1ccccc1NS(=O)(=O)c1ccc(NC(=O)c2nc3nc(C)cc(C(F)F)n3n2)cc1	6.6	-1	10073	0	2	nt	-2
O=c1cc(N2CCC3(CC2)OCCO3)[nH]c(=O)n1-c1ccc(Cl)cc1	1.3	5	11840	6	5	-23	-2
Cc1ccc(NC(=O)CSc2nnc(-c3n[nH]c4ccccc34)n2-c2ccccc2)c(C)c1	-0.7	-11	2372	0	4	-21	7
O=C(NN=Cc1cc(Br)ccc1O)C(=O)Nc1ccccc1OC(F)(F)C(F)F	13	40	nt	-7	-1	nt	nt
COc1ccc(Nc2nnc(-c3ccc(O)cc3)c3ccccc23)cc1C(N)=O	-1.0	-3	3463	21	12	-6	-3
O=[N+]([O-])c1ccccc1OCCCCN1CCCCC1	2.2	5	10867	7	4	nt	16
O=C(Nc1nncs1)c1cc2c(s1)CCC2	5.6	0	4269	22	16	-3	12
O=C(Nc1ncnc2c1ncn2C1OC(COC(=O)c2ccccc2)C(F)C1O)c1ccccc1 (centres undefined)	3.2	2	5629	4	0	-22	-9
O=C(NC(Cc1ccc(O)cc1)C(=O)O)/C(=C/c1ccccc1)NC(=O)c1ccccc1 (centres undefined)	-2.7	-6	6284	-10	3	-6	-10
Cc1cc(NC(=O)COc2ccc3oc4ccccc4c3c2)no1	-0.1	-9	4720	nt	nt	-8	7
COc1cc(OC)c(C(=O)NNC(=O)c2ccc(NS(=O)(=O)c3cccs3)cc2)cc1OC	9.5	9	3525	2	10	-17	nt
CCCn1c2ccccc2c2cnn(CC(=O)NCCCOC)c(=O)c21	1.9	10	3426	8	13	-5	2
COC(=O)/C=C1\SC(=NC(=O)c2ccc(-c3ccccc3)cc2)NC1=O	9.4	-3	4195	-3	11	-27	nt
O=C1/C(=C/c2ccccc2)CSc2sccc21	2.9	4	2620	nt	nt	-17	-1
CCc1cc(C(=O)c2ccc(OC)cc2)c(NC(=O)CN2CCCCC2)s1	3.2	59	4097	-8	5	-21	0
COc1ccc(C(=O)NCc2nnc(SCC(=O)NO)n2Cc2ccccc2)cc1	0.1	11	6088	5	13	-17	-9
Cc1ccn2c(C(=O)NNC(=O)Nc3ccc(Cl)cc3)c(C)nc2c1	0.3	19	?	5	-4	-7	nt
O=[N+]([O-])/C(=C\Nc1ccccc1)S(=O)(=O)c1ccccc1	nt	nt	3351	nt	nt	-16	7
CCOc1ccc(N(CC(=O)N/N=C/c2cc([N+](=O)[O-])ccc2Cl)S(C)(=O)=O)cc1	nt	nt	4677	nt	nt	-1	-5
O=C(Cc1c(F)cccc1Cl)Nc1ccc(S(=O)(=O)NCC2CCCO2)cc1 (centres undefined)	12	-2	4705	-2	-2	-21	2
COc1ccccc1-n1c(SCC(=O)Nc2ccc3c(c2)OCO3)nc2c(c1=O)SCC2	3.8	0	9613	12	12	-18	-1

4 entries drawn at random from the list so far, as already listed:
SMILES	Sa RN4220 lethal	Sa ugtP lethal	Bead autofluor	Mtb hypoxia inh	Mtb hypoxia inh growth	PrP 5UTR inh	BJeLR lethal
COc1ccccc1-n1c(SCC(=O)Nc2ccc3c(c2)OCO3)nc2c(c1=O)SCC2	3.8	0	9613	12	12	-18	-1
Cc1ccn2c(C(=O)NNC(=O)Nc3ccc(Cl)cc3)c(C)nc2c1	0.3	19	?	5	-4	-7	nt
O=C1/C(=C/c2ccccc2)CSc2sccc21	2.9	4	2620	nt	nt	-17	-1
CCCn1c2ccccc2c2cnn(CC(=O)NCCCOC)c(=O)c21	1.9	10	3426	8	13	-5	2

(next part)
SMILES	Sa RN4220 lethal	Sa ugtP lethal	Bead autofluor	Mtb hypoxia inh	Mtb hypoxia inh growth	PrP 5UTR inh	BJeLR lethal
CCOC(=O)C1C(=O)OC(C)(C)C1C(C)C(=O)c1ccc(OC)cc1 (centres undefined)	3.1	0	10202	1	5	-17	9
Oc1ccccc1CN(Cc1ccco1)CC(O)COCc1ccc(Cl)cc1 (centres undefined)	-0.5	-17	2009	10	-1	-13	-12
COc1ccc(C(=O)Nc2ccccc2N2CCCC2)cc1	4.8	15	3046	12	6	-6	6
COc1ccc(OC)c(NC(=O)c2cccc(C)c2[N+](=O)[O-])c1	-1.8	9	2629	1	5	-10	-5
COc1cccc(Nc2ccc(C(=O)O)cc2[N+](=O)[O-])c1	1.2	10	2505	2	14	-45	-5
CCOC(=O)N1CCN(S(=O)(=O)CCNC(=O)c2ccccc2)CC1	-0.4	-1	?	4	2	-6	3
COc1ccc(CNc2nc(Cl)c(C#N)s2)cc1	-1.4	-1	3842	4	4	-7	-6
CC(CNC(=O)c1ccccc1[N+](=O)[O-])NC(=O)c1ccccc1[N+](=O)[O-] (centres undefined)	4.3	0	nt	11	10	-11	2
CC(/C=N/NC(=O)c1cc(-c2ccc3ccccc3c2)n[nH]1)=C\c1ccco1	nt	nt	2551	nt	nt	-29	-5
CCN(CC)S(=O)(=O)c1cccc(-c2nnc(SCCCC(=O)c3ccccc3)o2)c1	1.4	-8	5301	14	2	-8	-11
COc1cccc(/C=C/c2nc(S(=O)(=O)c3ccccc3)c(N(C)C)o2)c1	1.0	-8	5762	-1	10	-18	-2
Nc1nc2c(c(=O)[nH]1)C(c1cccc3ccccc13)C1=C(N2)c2ccccc2C1=O (centres undefined)	-8.5	8	4469	7	0	-22	nt

Entries of single compounds, looked up by structure. Values in the order: Sa RN4220 lethal	Sa ugtP lethal	Bead autofluor	Mtb hypoxia inh	Mtb hypoxia inh growth	PrP 5UTR inh	BJeLR lethal
Nc1nc2c(c(=O)[nH]1)C(c1cccc3ccccc13)C1=C(N2)c2ccccc2C1=O (centres undefined) in the list: -8.5	8	4469	7	0	-22	nt
CCOC(=O)C1C(=O)OC(C)(C)C1C(C)C(=O)c1ccc(OC)cc1 (centres undefined) in the list: 3.1	0	10202	1	5	-17	9
COc1ccc(OC)c(NC(=O)c2cccc(C)c2[N+](=O)[O-])c1 in the list: -1.8	9	2629	1	5	-10	-5
CC(/C=N/NC(=O)c1cc(-c2ccc3ccccc3c2)n[nH]1)=C\c1ccco1 in the list: nt	nt	2551	nt	nt	-29	-5

(further entries)
SMILES	Sa RN4220 lethal	Sa ugtP lethal	Bead autofluor	Mtb hypoxia inh	Mtb hypoxia inh growth	PrP 5UTR inh	BJeLR lethal
O=[N+]([O-])c1ccc(-c2ccc(/C=N/c3c(-c4ccco4)nc4ccccn34)o2)cc1	nt	nt	12577	nt	nt	-31	-4
COc1ccc(N=Nc2nc3cc(Br)c(Br)cc3n2C)c(OC)c1	7.3	0	7504	7	7	-17	nt
O=C1c2ccccc2C(=O)N1CCCCSc1nnc(-c2ccc(OC(F)F)cc2)o1	20	-2	6540	3	2	-3	-1
COc1cccc(CSc2nnc(-c3ccncc3)n2C)c1	2.5	3	4008	1	0	-15	9
CCOc1ccc(OCCC(=O)N(CC)CC(=O)Nc2ccccc2OC)cc1	2.7	2	?	5	21	-3	nt
O=C(Nc1ccc([N+](=O)[O-])cn1)C1CC2CCC1C2 (centres undefined)	6.1	1	2386	1	4	3	16
COc1ccc(-n2c(C)cc(C(=O)COc3ccc(-n4cnnn4)cc3)c2C)cc1	2.0	0	5001	nt	nt	6	-7
Nc1ccc2oc(-c3ccccc3Cl)nc2c1	2.8	-8	10063	-8	4	12	-11
COc1ccc(NC(=O)C2C3C=CC4(O3)C2C(=O)N(CCN2CCCCC2C)C4C(=O)NC2CCCC(C)C2C)cc1 (centres undefined)	0.5	3	3946	-1	1	-18	0
O=C1CS/C(=N/N=C/c2ccccc2)N1Cc1ccco1	nt	nt	5378	nt	nt	-35	2
Cn1c(=O)[nH]c(=O)c2c1nc(NCc1ccco1)n2Cc1ccccc1Cl	2.3	4	3674	7	6	-28	7
O=C(NCC(c1ccco1)N1CCc2ccccc2C1)c1cccc(Br)c1 (centres undefined)	1.8	2	6289	11	-3	-16	4
CCNC(=S)N(CCN(C)C)Cc1cc2cc3c(cc2[nH]c1=O)OCO3	1.9	5	4280	2	3	-19	-7
Cc1ccc(S(=O)(=O)NNC(=S)Nc2ccccc2)cc1	10	-3	3161	3	1	-11	12

Reformatted: entries from further up.
CCNC(=S)N(CCN(C)C)Cc1cc2cc3c(cc2[nH]c1=O)OCO3
  Sa RN4220 lethal: 1.9
  Sa ugtP lethal: 5
  Bead autofluor: 4280
  Mtb hypoxia inh: 2
  Mtb hypoxia inh growth: 3
  PrP 5UTR inh: -19
  BJeLR lethal: -7

Cc1ccc(S(=O)(=O)NNC(=S)Nc2ccccc2)cc1
  Sa RN4220 lethal: 10
  Sa ugtP lethal: -3
  Bead autofluor: 3161
  Mtb hypoxia inh: 3
  Mtb hypoxia inh growth: 1
  PrP 5UTR inh: -11
  BJeLR lethal: 12

Assay outcomes deposited in PubChem by several laboratories.

Rows were taken by chance, and some 4% of all compounds hit somewhere here.
